rRNA inh HTS: selective bacterial rRNA inhibition in E. coli; E. coli WT GFP vs humanized-ribosome RFP mutants, fluorescence, 24 h; active compounds read low; DMSO median 0, no signal -100; 350,000 tested, 1.6% active; GFP signal change (wild-type ribosome), % (test concentration not listed);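 active means significant combined selectivity score with lowered wild-type GFP, culture density cut under 30%, mutant RFP and density less affected; inactive means any of these conditions unmet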; further: one replicate is shown; some compounds called inactive have numbers as strong as hits
ALR H2O2 inh: human ALR oxidase inhibition via reduced H2O2. AID 485317. purified ALR, DTT oxidation, H2O2 HRP-luminol luminescence. 290,000 tested, 3.8% active. inhibition, % (no concentration beside the values);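 active means mean and each replicate at 75% or more; inconclusive means only one of the two met; inactive means neither met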;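 further: stock transfer was 7.5 nL into about 7.5 µL; 0% = neutral wells and 100% = wells with inactivated enzyme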
Target sequence (P55789 whole entry, looked up): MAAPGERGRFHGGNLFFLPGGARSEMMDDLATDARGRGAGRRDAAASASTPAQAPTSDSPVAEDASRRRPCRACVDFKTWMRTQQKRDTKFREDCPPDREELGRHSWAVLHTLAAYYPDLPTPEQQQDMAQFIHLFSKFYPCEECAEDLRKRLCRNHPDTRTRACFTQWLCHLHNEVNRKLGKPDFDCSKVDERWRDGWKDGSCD
AF4-AF9 inh: inhibitors of human MLL-AF4/AF9 interaction | P42568 | AlphaScreen, biotin-AF4 peptide binding to FLAG-AF9 | inhibition, % at 10 µM | 350,000 tested, 0.47% active | AID 651704;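 active means every replicate reaching a set inhibition limit, whatever the replicate mean, cut at about 25% in these data; inconclusive means mean inhibition reaches that limit but some replicates miss it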;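 further: 0% = plate neutral control median and 100% = total signal loss; the record names both 10 and 1 µM as test concentration; the first replicate is given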
Target sequence (P42568 whole entry, looked up): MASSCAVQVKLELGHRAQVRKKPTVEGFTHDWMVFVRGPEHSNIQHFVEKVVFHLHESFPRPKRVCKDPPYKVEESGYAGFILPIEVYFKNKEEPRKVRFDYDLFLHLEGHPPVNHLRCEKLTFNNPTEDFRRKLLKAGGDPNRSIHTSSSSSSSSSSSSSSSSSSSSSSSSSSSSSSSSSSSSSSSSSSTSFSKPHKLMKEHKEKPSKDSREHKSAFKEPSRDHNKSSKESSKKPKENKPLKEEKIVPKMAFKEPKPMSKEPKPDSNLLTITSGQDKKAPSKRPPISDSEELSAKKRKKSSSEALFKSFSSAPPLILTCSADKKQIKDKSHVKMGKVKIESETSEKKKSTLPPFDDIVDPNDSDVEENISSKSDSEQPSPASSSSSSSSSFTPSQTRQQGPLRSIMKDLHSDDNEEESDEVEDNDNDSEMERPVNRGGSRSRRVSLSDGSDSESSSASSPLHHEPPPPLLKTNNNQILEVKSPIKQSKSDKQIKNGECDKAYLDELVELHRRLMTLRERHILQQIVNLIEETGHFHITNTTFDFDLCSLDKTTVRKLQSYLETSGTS
FGF22 binding: binders of recombinant human FGF22 by thermal shift | Q9HCT0 | SYPRO orange fluorescence; percent of sucrose octasulfate shift, DMSO zero | calls only at 9.99 µM | 340,000 tested, 1.5% active | AID 651658;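 active means melting point raised past a set limit in the mean and every replicate; inconclusive means no clear call; three in four hits are not shown here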
Target sequence (Q9HCT0 whole entry, looked up): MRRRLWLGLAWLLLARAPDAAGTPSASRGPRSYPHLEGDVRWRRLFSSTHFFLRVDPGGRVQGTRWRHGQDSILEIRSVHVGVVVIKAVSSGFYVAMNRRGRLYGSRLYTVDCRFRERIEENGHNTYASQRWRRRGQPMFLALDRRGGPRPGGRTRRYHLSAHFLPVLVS
Beta cell apopt: beta cell apoptosis inhibition. 300,000 tested, 0.8% active. INS-1E cytokine-induced death, ATP luminescence, 48 h; percent of positive-control rescue, neutral wells zero. protection from apoptosis, % (test concentration not listed);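 active means all replicates at 75% or more, or half of them and the mean; inconclusive means half reach 75% but not the mean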;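 further: 0% = cytokine-treated negative control wells and 100% = positive control rescue; higher means more ATP so stronger rescue from cytokine killing; wells of about 40 µL received 100 nL stock; the first replicate is given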
T cruzi repl: blocks replication of Trypanosoma cruzi; 300,000 tested, 1.4% active; AID 1885; inhibition, % (test concentration not listed); T. cruzi beta-gal in NIH3T3, luminescence, 90 h;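 active means mean inhibition across valid replicates above about 55%, limit read from the data; inconclusive means mean below that limit but half or more replicates reach it; inactive means mean below it, under half of replicates reach it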;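 further: signal also drops with host cell toxicity which is not excluded here; 0% = plate median of DMSO wells and 100% = zero luminescence signal; higher percent means less beta-gal luminescence so fewer parasites; stock transfer was 50 nL into about 50 µL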
Calb FLC: affects C. albicans growth with fluconazole; C. albicans CaCi-2 (fluconazole-resistant clinical isolate) + fluconazole, Alamar Blue growth, 48 h; growth inhibition, % (test concentration not listed); 300,000 tested, 0.57% active; AID 1979;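 active means most replicates above 75%; inconclusive means exactly half above 75%; inactive means most below 75%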;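 further: all wells also contain fluconazole at 8 µg/ml as a sub-toxic cotreatment; 0% = median of DMSO wells and 100% = median of geldanamycin control wells; wells of about 8 µL received 7.5 nL stock; the first replicate is given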
RanGTP-Impb inh: disruptors of Ran-importin-beta complex formation – biochemical, FRET, CFP-Ran, YFP-importin-beta, homogeneous, primary screen. cell-free CFP-Ran/YFP-importin-beta FRET ratio. inhibition, % (test concentration not listed). 300,000 tested, 1.1% active. AID 2216;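 active means most replicates above 15%; inconclusive means exactly half above 15%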;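 further: 0% = DMSO wells and 100% = Ran loaded with GDP instead of GTP; wells of about 40 µL received 100 nL stock; the first replicate is given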
rRNA inh HTS OD600: recorded beside rRNA inh HTS, whose call it bears; OD600 change, %; measured here: OD600 growth;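 optical density of the mix in the first replicate; 0 = DMSO median and -100 = no signal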
rRNA inh HTS RFP: also measured in rRNA inh HTS; calls as there; RFP signal change, %; measured here: RFP humanized mutant strains;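 first replicate; 0 = DMSO median and -100 = no signal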
An asterisk follows results filed as active; i = inactive; u = inconclusive; x = no result given. Some of the compounds tested (hit frequency here may not be typical).

SMILES	rRNA inh HTS	rRNA inh HTS OD600	rRNA inh HTS RFP	ALR H2O2 inh	AF4-AF9 inh	FGF22 binding	Beta cell apopt	T cruzi repl	Calb FLC	RanGTP-Impb inh
CCC(C)OC(=O)C1=C(C)O[C@]23OC(N)=C(C#N)[C@]12C(=O)c1ccccc13 (stereo partly drawn)	x	x	x	-10	x	x	7	-8	9	-1.3
COc1ccc(C(=O)C2CCN(C(=S)NCCc3ccc(OC)c(OC)c3)CC2)cc1	-25*	-20*	-0.9*	-10	2.4	i	-2	-7	21	-1.9
COc1ccc(NS(=O)(=O)c2ccc(-c3coc(C)n3)cc2)cc1	-6	-10	6.6	1	0.6	i	5	14	48	7.0
O=[N+]([O-])c1cccc(/C=N/Nc2ncc(Br)cn2)c1	15	23	1.6	x	-1.7	i	-4	0	20	-0.1
COC(=O)[C@@H](NC(=O)NCc1cccc(OC)c1)C(C)C	x	x	x	1	x	x	-5	-23	-3	0.7
Cc1cc2oc(=O)c(CC(=O)NCCCN(C)C)c(C)c2c2occ(C(C)(C)C)c12	x	x	x	3	x	x	8	59*	8	1.3
CN1C(=O)[C@H]2[C@@H](C3CC3)N3C(=O)CN(Cc4ccccc4)C(=O)[C@@]3(C)[C@H]2C1=O	7	3	-3.3	6	-0.4	i	1	-14	-9	2.5
CCOc1ccccc1NC(=O)CN1CCc2ccccc2C1	-23	-48	0.7	14	-1.9	i	-2	16	-18	7.5
CNC(=S)N/N=C1\CC(c2ccccc2)Oc2ccccc21 (stereo not drawn)	19	23	2.5	-2	7.9	i	-16	25	u	0.7
O=C(C#Cc1ccccc1)Nc1ccccc1F	0	-5	-0.2	12	-6.1	i	0	-5	-7	2.5
CC(=O)Cn1cnc2c(sc3nc(C)cc(C)c32)c1=O	-2	1	1.2	0	-0.7	i	-2	-7	21	-1.8
CCS(=O)(=O)NCc1ccc2c(c1)cc(C)n2C	-3	11	31	-110	11	i	-1	7	-6	-1.9
COc1ccc(C2CC(=O)C(C=NCCCO)=C(O)C2)cc1 (stereo not drawn)	14	6	6.8	-34	0.4	i	-3	0	-1	-0.4
CCCC(=O)Nc1nnc(S(=O)(=O)N2CCCCCC2)s1	2	8	-0.6	x	0.3	i	-9	3	-2	1.2
Cn1c(C(=O)Nc2ccc3c(c2)OCCO3)cc2c(=O)n(C)c3ccccc3c21	-4	-24	-5.2	-13	-9.6	i	-3	17	0	1.3
COCCCn1c(C(=O)N2CCOCC2)cc2c(=O)n3cccc(C)c3nc21	6	2	6.5	x	-4.3	i	-8	-7	-1	-1.5
CC(C)N(C(=O)COC(=O)CNC(=O)c1ccc(Br)cc1)c1ccccc1	-5	-12	-0.8	x	-0.1	i	-8	-1	7	1.7
CSCCC(NC(=O)c1ccco1)C(=O)O (stereo not drawn)	x	x	x	2	x	x	x	-12	-16	u
CCOC(=O)c1c(NC(=O)Cn2nnc(-c3ccc(Cl)cc3)n2)sc(C)c1C	x	x	x	-8	x	x	-2	15	51	-5.6
CCCCNC(=O)N1CCN(C(=O)C2CCCO2)CC1 (stereo not drawn)	7	3	1.6	1	1.0	i	-3	9	-2	5.1
CCOC(=O)c1ccc(Nc2sc(C(=O)c3cccc([N+](=O)[O-])c3)c(N)c2C#N)cc1	-2	10	0.0	-2	2.2	i	33	0	9	4.1
NC1=NC[C@H](Cc2ccccc2)N1CCc1cc(C(F)(F)F)cc(C(F)(F)F)c1	-50	-78	-24	-66	4.3	i	9	32	73	3.5
Cc1nc(SC2CC(=O)N(c3cc(Cl)cc(Cl)c3)C2=O)nc2c1CCCC2 (stereo not drawn)	x	x	x	1	x	x	-1	-2	2	-1.0
CCCCc1nccn1CCn1ccnc1CCCC	x	x	x	0	x	x	-1	-3	11	-1.2
CCCCn1nc(C(=O)NC2CCCCCC2)c2ccccc2c1=O	3	13	1.4	-1	-2.6	i	-13	x	x	x
Cc1cc(C)c(NC(=O)C2=CCN(S(=O)(=O)c3ccc(F)cc3)CC2)c(C)c1	3	4	1.3	-63	1.0	i	-10	3	2	1.8
Cc1ccc(-c2cc3onc(-c4ccccc4)c3c(=O)n2C)cc1	0	6	-7.2	0	-2.5	i	16	x	x	x
CCc1ccc(C(O)(c2ccccc2OC)C(CN2CCOCC2)c2ccccc2)cc1 (stereo not drawn)	-21	-31	-10.0	0	3.4	i	15	-3	13	0.7
COc1ccc(C(=O)Nc2ccc(S(=O)(=O)Nc3ncccn3)cc2)cc1OC	4	10	-2.5	-7	-7.1	i	-4	-8	13	7.2
CCOc1ccc(/C=N/NC(=O)C(=O)NCc2ccco2)cc1	8	6	-0.6	-3	-3.4	i	-2	-12	2	0.6

Part of the list above, limited to T cruzi repl.
| Structure | T cruzi repl |
| --- | --- |
| Cc1cc(C)c(NC(=O)C2=CCN(S(=O)(=O)c3ccc(F)cc3)CC2)c(C)c1 | 3 |
| NC1=NC[C@H](Cc2ccccc2)N1CCc1cc(C(F)(F)F)cc(C(F)(F)F)c1 | 32 |
| CCOc1ccc(/C=N/NC(=O)C(=O)NCc2ccco2)cc1 | -12 |
| Cc1nc(SC2CC(=O)N(c3cc(Cl)cc(Cl)c3)C2=O)nc2c1CCCC2 (stereo not drawn) | -2 |

Compound profiles, as listed above. Values in the order: rRNA inh HTS, rRNA inh HTS OD600, rRNA inh HTS RFP, ALR H2O2 inh, AF4-AF9 inh, FGF22 binding, Beta cell apopt, T cruzi repl, Calb FLC, RanGTP-Impb inh
Cc1cc(C)c(NC(=O)C2=CCN(S(=O)(=O)c3ccc(F)cc3)CC2)c(C)c1 reads 3, 4, 1.3, -63, 1.0, i, -10, 3, 2, 1.8
CCCCc1nccn1CCn1ccnc1CCCC reads x, x, x, 0, x, x, -1, -3, 11, -1.2

(listing goes on)
SMILES	rRNA inh HTS	rRNA inh HTS OD600	rRNA inh HTS RFP	ALR H2O2 inh	AF4-AF9 inh	FGF22 binding	Beta cell apopt	T cruzi repl	Calb FLC	RanGTP-Impb inh
O=C(O)c1ccccc1C(=O)Nc1ccccc1[N+](=O)[O-]	2	-5	-5.8	-2	-7.4	i	1	5	-9	0.4
CCN(CC)S(=O)(=O)c1ccc(OC)c(NC(=O)c2ccc([N+](=O)[O-])cc2)c1	10	-3	-3.4	-4	5.7	x	x	17	u	-0.1
C=CCNc1cccc(Br)c1	9	10	1.1	-5	-16	i	-5	-21	0	u
COc1ccc(C)cc1Nc1n[n+](-c2ccccc2)c(-c2ccc(N(C)C)cc2)s1	-54	-80	-26	2	23	i	99*	47	105*	0.0
CN1CCN(C(=O)c2ccc(N(Cc3ccc(Cl)cc3)S(C)(=O)=O)cc2)CC1	x	x	x	-9	x	x	0	4	-10	-0.1
COc1ccc(-c2nn(-c3ccccc3)cc2/C=C\C(=O)N2CCOCC2)cc1[N+](=O)[O-]	-3	4	-2.0	-23	0.9	x	11	9	18	-2.3
COc1ccccc1CN(C(=O)CNC(=O)c1ccco1)C(C(=O)NCC1CCCO1)c1ccccc1 (stereo not drawn)	0	1	1.3	-4	1.1	i	3	-8	-5	5.1
COc1ccc(CNc2ccc(S(N)(=O)=O)cc2)c(OC)c1OC	x	x	x	-3	x	x	-5	5	-17	-1.0
CC(C)NS(=O)(=O)c1ccc(CCC(=O)O)cc1	x	x	x	1	x	x	-1	3	-8	-2.0
CCCn1c(N)c(C(=O)CSc2nc3ccccc3n2CCC#N)c(=O)n(C)c1=O	x	x	x	-1	x	x	-4	-14	1	-2.8
Cc1ccccc1C(=O)N/N=C/c1ccccn1	5	3	-4.9	-11	7.3	i	-2	-11	u	4.7
O=C(CN1CCOCC1)NNc1nc(-c2ccccc2)c2cc(Br)ccc2n1	-2	-9	-4.7	x	0.8	i	-11	0	-9	-0.2
O=C(N/N=C/c1ccco1)c1ccccc1OCc1ccc(Br)cc1	-26	-34	2.4	0	1.0	i	5	21	5	-1.7
COc1ccccc1N1CCN(C(=O)c2ccc3c(Cl)c4c(nc3c2)CCCC4)CC1	x	x	x	-2	x	x	-2	-29	-1	0.7
COc1cc(NC(=O)c2ccnnc2)cc(C(=O)Nc2cccc(C(F)(F)F)c2)c1	-32	-58	-10	-1	2.8	i	1	-29	-5	u
COc1ccc(N(CC(=O)NN=C2CCCC2)S(=O)(=O)c2ccccc2)cc1	x	x	x	2	x	x	-4	0	-7	-2.1
COc1ccc(NS(=O)(=O)c2cccs2)cn1	4	1	-0.2	2	0.6	i	-6	-10	-23	1.8
CCOc1cc(/C=N/NC(=O)c2ccccn2)ccc1OC(=O)c1cccs1	-1	-2	0.3	18	0.4	i	4	11	-3	-2.7
Cc1[nH]c2ccccc2c1/C=C/c1nc2ccccc2c(=O)n1-c1ccc([N+](=O)[O-])cc1	x	x	x	x	-0.5	i	7	38	21	38*
CCn1cc(C(=O)NCCCN2CCCC2)c(=O)c2cc(S(=O)(=O)N3CCc4ccccc4C3)ccc21	x	x	x	x	6.1	i	2	3	11	0.8
Cc1[nH]c2ccccc2c1/C=N/NC(=O)c1cc(C(C)(C)C)[nH]n1	-12	-10	2.4	x	4.5	i	-1	-5	-5	-0.1
O=C(CN1C(=O)c2cccnc2Oc2ccc(Cl)cc21)Nc1ccccc1F	-5	-9	0.4	-2	0.5	i	6	13	2	-0.7
Cc1cc(=O)[nH]c(SCCOc2ccc(OC(C)C)cc2)n1	x	x	x	x	x	x	7	-1	u	-3.6
COc1ccc(NC(=O)C(CCSC)NC(N)=O)cc1NS(=O)(=O)c1ccc(F)cc1 (stereo not drawn)	x	x	x	0	-0.1	x	-1	1	-11	0.4
COc1ccc(N=C(c2ccccc2)c2c(C)[nH]n(-c3ccccc3)c2=O)c(OC)c1	-3	-16	-3.4	-8	17	i	15	39	16	4.4
CCCn1c(N)c(C(=O)CSc2nc3ccccc3s2)c(=O)[nH]c1=O	-1	-2	0.0	97*	-3.5	i	7	16	6	-0.3
CC(C)C[C@H](N)c1cn([C@@H](Cc2ccc(O)cc2)C(=O)N2CCNCC2)nn1	19	15	-4.0	-4	x	i	-6	-28	-1	0.3
CC(C)(C)OC(=O)NCCCCCNC(=O)c1[nH]cnc1C(=O)NC1CCN(C(=O)OC(C)(C)C)CC1	-5	-19	23	-6	x	i	9	x	x	x
Cc1noc(C)c1COc1ccccc1C(=O)N1CCN(c2cccc(C(F)(F)F)c2)CC1	-7	-47	-6.1	0	-4.4	i	11	x	x	x
O=C(Nc1ccc(Br)cc1F)C1CC(=O)N(C2CCCCC2)C1 (stereo not drawn)	-7	-9	3.5	-1	2.1	i	-5	-10	x	x
CSc1nnc(C)c(=O)n1COC(=O)c1ccc(S(=O)(=O)N2CCOCC2)cc1	x	x	x	4	x	x	-4	-6	1	-0.7

Quoted from the listing.
In Beta cell apopt, Cc1cc(=O)[nH]c(SCCOc2ccc(OC(C)C)cc2)n1 is entered as 7
In rRNA inh HTS RFP, CC(C)(C)OC(=O)NCCCCCNC(=O)c1[nH]cnc1C(=O)NC1CCN(C(=O)OC(C)(C)C)CC1 is entered as 23
